Screening data as filed in PubChem BioAssay.
Bead autofluor – compound fluorescence in toxin protease inhibitor counterscreen. AID 624483. hit rate 3.1% among 360,000. compound autofluorescence counterscreen, microsphere flow cytometry; active compounds read high. fluorescence intensity (no concentration beside the values);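 active = at least 3 SD above the mean of all compounds, about 16000 in these data; inconclusive = too few beads counted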;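 also: 100 nL of 1 mM stock went into each well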
ugtP null kill – growth inhibition of ugtP-null S. aureus, primary screen, RN4220 ugtP deletion, OD600; growth inhibition, % (no concentration beside the values); hit rate 0.54% among 330,000; 16 h; some inactives read as strong as hits;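 active = z-score under -3 and OD600 up to 0.15 on both plates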;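 also: plate controls were untreated wells for no effect and antibiotic for full effect; wells of about 80 µL received 100 nL stock; the first replicate is given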
BJeLR viability – MLPCN primary cell-based screen for lethality selective to Ras in HRASV12 cells | BJeLR (HRASV12) viability, CellTiter-Glo ATP luminescence, 48 h; reference of the scale not given here | inhibition, % (concentration not given with the values) | hit rate 0.17% among 300,000 | AID 1554, 2009;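 active = replicate mean above 50%; inconclusive = above 50% but judged a plate artefact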;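 also: 50 nL library stock added to about 25 µL; numbers are from one replicate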
Mtb hypoxia inh – PubChem AID 1159583; M. tuberculosis hypoxia-regulated fluorescent reporter, fluorescence; fluorescence inhibition, % (no concentration beside the values); hit rate 0.1% among 300,000;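 active = 35 to 45% if threefold the growth effect, above 45% if 1.5-fold the growth effect; inactive = the rest, general growth blockers included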;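 also: wells of about 50 µL received 100 nL stock; 0% = vehicle wells and 100% = reference inhibitor wells; whole bacteria with a GFP reporter of the hypoxia response; strong numbers were not always called active; many hits fall short of the cut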
RN4220 kill – growth inhibition of S. aureus RN4220, primary screen, OD600 | 16 h | inhibition, % (test concentration not listed) | hit rate 0.33% among 330,000;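 active = z-score of -3 or lower and OD600 up to 0.18 on both plates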;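 also: plate controls were untreated cells for no effect and reference antibiotic for full effect; stock transfer was 100 nL into about 80 µL; one replicate is shown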
PrP 5UTR inh – inhibition of PrP 5' UTR reporter expression. cell-based PrP 5' UTR mRNA reporter, plate reader. AID 488862, 2010. inhibition, % (no concentration beside the values). hit rate 0.35% among 340,000;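 active = every replicate at 50% or more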;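 also: 0 = median of the neutral control wells; tested in H4 reporter cells; numbers are from one replicate; inactives centre near -14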
Mtb hypoxia inh growth – further read-out of Mtb hypoxia inh, marked with its call; growth inhibition, %; measured here: M. tuberculosis growth (absorbance);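 0% = vehicle and 100% = reference antibiotic; read after six days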
* = called active by the depositor; ? = inconclusive; . = no result given; & = joins results of further samples.

structure	Bead autofluor	ugtP null kill	BJeLR viability	Mtb hypoxia inh	Mtb hypoxia inh growth	RN4220 kill	PrP 5UTR inh
CC(=O)c1ccc(OCCCC(=O)Nc2cc(S(=O)(=O)N(C)C)ccc2C)cc1	6995	-1	1	3	3	4.9	-20
O=S(=O)(c1ccc(Cl)cc1)c1cnc2ccccc2n1	2170	7	-7	5	8	5.8	-10
CN(Cc1ccccc1)Cc1nc2scc(-c3ccccc3)c2c(=O)[nH]1	4230	11	-1	25	6	-1.7	-50
O=C(Nc1ccccc1)Nc1ccc(-n2ccc(C(F)(F)F)n2)cc1	5519	-14	-7	-2	1	4.5	-70
COC(=O)[C@]1(C)N[C@H](CN(C)S(=O)(=O)c2ccccc2)[C@@H]2C(=O)N(C)C(=O)[C@@H]21	3380	7	.	3	8	5.8	21
Cc1cccc([C@@H]2C[C@H]3CN(Cc4cccc(Cl)c4)C(=O)[C@]34CCCN24)n1	3962	8	-17	12	6	2.1	-1
NC(=NN=Cc1ccc2c(c1)OCO2)c1nonc1N	.	1	.	16	0	6.3	.
Cc1c(Cl)c([N+](=O)[O-])nn1CC(=O)NCc1cccs1	1925	1	16	1	2	-0.4	-10
CSc1nc2nc(C)c(CCC(=O)OCC(=O)Nc3ccc(F)cc3)c(C)n2n1	?	4	.	6	6	3.4	-8
Cc1cc(C)cc(N2CC(C(=O)NC3CCCCC3)CC2=O)c1 (stereo not given)	4364	14	-7	-1	-4	2.6	-3
O=C(COc1ccccc1[N+](=O)[O-])Nc1ccc2c(c1)CCC2	3786	-8	.	8	19	7.0	-65
COc1ccc(CNC(=O)CSc2n[nH]c(C)c2[N+](=O)[O-])cc1	2437	6	-4	5	5	-0.2	4
CC(=O)Nc1nnc(SCC(=O)NCC2CCCO2)s1 (stereo not given)	8418	-2	0	-10	-2	-1.7	-7
COc1ccc(S(=O)(=O)N2CCOCC2)cc1NC(=O)CSc1nnc(C2CC2)n1C1CC1	3847	5	.	-4	3	7.1	-12
COc1cc(/C=C/C(=O)O)cc(S(=O)(=O)Nc2cc(C(F)(F)F)ccc2N2CCOCC2)c1OC	.	0	.	6	7	5.5	-11
COc1ccccc1C(=O)NCCC(=O)NCC(C)(C)N1CCOCC1	6069	0	-9	9	-13	-1.7	-15
CC(C)c1nnc(NC(=O)CSc2nnc(-c3ccco3)o2)s1	3947	10	2	-5	3	14	-15
COC(=O)c1c(NC(=O)C2CCCO2)sc2c1CCC2 (stereo not given)	3340	4	19	6	7	6.3	-31
CCOc1ccc(Cc2c(O)[nH]c(=O)[nH]c2=O)cc1	2909	-3	1	16	3	-7.6	-10
CC1CC(=O)N(c2ccc(Br)cc2)C(=O)C1	.	3	-3	6	10	-0.4	-10
Cc1ccc(S(=O)(=O)NCCC(=O)Nc2cc(F)ccc2C)cc1C	4090	15	6	8	10	3.8	-15
CNC(=O)ON=C(C)Cc1nnn(-c2cc(C)on2)n1	.	6	.	5	5	0.2	.
CCCNc1c(NS(=O)(=O)c2ccc(Br)cc2)c(=O)oc2ccccc12	5522	-8	-11	-1	-5	3.1	-33
CN(C)CCNC(=O)c1[nH]nc2c1CCc1ccccc1-2	3680	12	7	9	12	0.9	-36
COc1cc2c(cc1OC)C(C)N(C(=O)c1cc3c(s1)-c1ccccc1OC3)CC2 (stereo not given)	6318	15	0	.	.	2.2	-10
O=C(Nc1ccc(S(=O)(=O)N2CCc3ccccc3C2)cc1)c1ccccc1	22609*	-14	9	-3	7	8.0	-5
CCCn1c(CC)nc([N+](=O)[O-])c1Sc1ccc(F)cc1	5954	3	5	5	10	3.1	-36
COc1cccc2cc(C(=O)NCc3ccccn3)c(=O)oc12	3071	-3	3	.	.	4.3	-38
Cc1cc(C)cc(NC(=O)C(=O)NCc2ccccn2)c1	2063	2	-2	10	6	-2.0	-19
Cc1ccc(NCc2nnc(SCC(=O)N(Cc3ccccc3)C(C)(C)C)o2)c(C)c1	9755	-31	-2	9	7	1.6	-23

7 entries out of the list, ordered by molecular weight, largest number first:
structure	Bead autofluor	ugtP null kill	BJeLR viability	Mtb hypoxia inh	Mtb hypoxia inh growth	RN4220 kill	PrP 5UTR inh
Cc1cccc([C@@H]2C[C@H]3CN(Cc4cccc(Cl)c4)C(=O)[C@]34CCCN24)n1	3962	8	-17	12	6	2.1	-1
Cc1c(Cl)c([N+](=O)[O-])nn1CC(=O)NCc1cccs1	1925	1	16	1	2	-0.4	-10
O=C(COc1ccccc1[N+](=O)[O-])Nc1ccc2c(c1)CCC2	3786	-8	.	8	19	7.0	-65
COc1cccc2cc(C(=O)NCc3ccccn3)c(=O)oc12	3071	-3	3	.	.	4.3	-38
CNC(=O)ON=C(C)Cc1nnn(-c2cc(C)on2)n1	.	6	.	5	5	0.2	.
NC(=NN=Cc1ccc2c(c1)OCO2)c1nonc1N	.	1	.	16	0	6.3	.
CCOc1ccc(Cc2c(O)[nH]c(=O)[nH]c2=O)cc1	2909	-3	1	16	3	-7.6	-10

Carrying on:
structure	Bead autofluor	ugtP null kill	BJeLR viability	Mtb hypoxia inh	Mtb hypoxia inh growth	RN4220 kill	PrP 5UTR inh
COc1ccc(C(CC(=O)Nc2ccc(F)cc2)c2ccccc2)cc1 (stereo not given)	2953	16	6	1	5	1.1	-20
CC(C)C(=O)Nc1ccc(-c2nc3ccccc3c(=O)o2)cc1	4274	7	-4	16	14	-4.7	0
CC(C)(CSc1ccccn1)NS(=O)(=O)c1ccc(Cl)cc1	2328	-4	14	10	2	7.3	-14
O=C(NN=C1CCCC1)c1sc2ccccc2c1Cl	3345	-13	9	14	9	12	-39
Cc1csc(NC(=O)CSC2=NCCS2)n1	4356	3	0	1	0	1.6	-28
O=[N+]([O-])c1cccn2cc(-c3ccc(Br)cc3)nc12	3468	10	0	2	3	2.8	-65
COc1ccc(CNC(=O)CN(c2ccccc2OC)S(=O)(=O)c2cccs2)cc1	6257	1	.	4	9	5.3	2
Cc1ccc([N+](=O)[O-])cc1NC(=O)CCCOc1ccccc1	16846*	10	5	4	5	3.9	-4
Cc1cccc(S(=O)(=O)NC(Cc2c[nH]c3ccccc23)C(=O)O)c1 (stereo not given)	2439	-1	2	7	3	4.3	-17
Cc1cc(C)n2nc(C(=O)OCC(=O)NCc3ccc(F)cc3)nc2n1	3723	2	.	-4	3	3.2	-12
Cc1ccsc1C(=O)C1CCCN(Cc2ccn[nH]2)C1 (stereo not given)	4180	7	3	5	9	2.9	-33
O=C(O)c1ncc(Cl)c(Cl)c1Cl	6104&3767	7&1	-3&10	7&-1	-2&3	3.5&4.2	-15&-21
Cc1occc1-c1nnc(SCC(=O)c2c(N)n(C3CC3)c(=O)[nH]c2=O)n1C	4885	1	.	-1	13	2.9	.
Cc1ccc(NC(=O)c2cnccn2)cc1S(=O)(=O)N1CCCCCC1	3725	3	.	2	12	4.6	-11
COC(=O)c1cc2c(ccn2-c2ccc(F)cc2)n1Cc1cccc(OC)c1	2102	16	-12	-2	1	-0.5	-51

Record cards, from the list above.
`CSc1nc2nc(C)c(CCC(=O)OCC(=O)Nc3ccc(F)cc3)c(C)n2n1` reads Bead autofluor = ?; ugtP null kill = 4; BJeLR viability = .; Mtb hypoxia inh = 6; Mtb hypoxia inh growth = 6; RN4220 kill = 3.4; PrP 5UTR inh = -8
`O=C(O)c1ncc(Cl)c(Cl)c1Cl` reads Bead autofluor = 6104&3767; ugtP null kill = 7&1; BJeLR viability = -3&10; Mtb hypoxia inh = 7&-1; Mtb hypoxia inh growth = -2&3; RN4220 kill = 3.5&4.2; PrP 5UTR inh = -15&-21

Going on with the list:
structure	Bead autofluor	ugtP null kill	BJeLR viability	Mtb hypoxia inh	Mtb hypoxia inh growth	RN4220 kill	PrP 5UTR inh
O=c1[nH]c(CSc2nnc(-c3ccncc3)n2Cc2ccco2)nc2ccccc12	22482*	0	5	-5	9	-1.2	-14
CCC(C)C1N=C(c2ccccc2)c2cc(Cl)ccc2N(CC(=O)NCc2ccco2)C1=O (stereo not given)	5719	-4	-1	1	4	3.0	-12
COc1ccccc1C(CNC(=O)C(C)(C)Oc1ccc(Cl)cc1)N1CCCC1 (stereo not given)	8255	8	4	2	0	-0.6	-8
CC(C)OC(=O)/C(=C/c1ccc2c(c1)c1ccccc1n2C)NC(=O)c1ccccc1	7533	6	16	-25	-18	14	-29
CSc1ccc(C(=O)C2CCCN(Cc3ccc(N4CCNC4=O)cc3)C2)cc1 (stereo not given)	2235	4	7	6	1	-0.2	-22
O=S(=O)(Nc1ccc(S(=O)(=O)Nc2cccc3ccccc23)cc1)c1ccccc1	9408	-1	5	4	1	22	-19
COc1ccccc1CNC(=O)CSc1ccc(C(=O)Nc2ccccc2OC)cc1[N+](=O)[O-]	2448	-1	-5	6	-4	2.0	-1
CC(C)(C)N(Cc1ccccc1)C(=O)COC(=O)CSc1ccc([N+](=O)[O-])cc1	5812	1	32	-5	-5	10	-13
CCCc1nc(SCC(=O)NC2CC2)c2c(C)c(C)sc2n1	4294	5	-13	3	-6	4.2	-25
O=C(CSc1nnc(CNc2ccc(F)cc2)o1)c1ccccc1	2488	0	-2	-7	-4	-0.6	-13
Cc1nc([N+](=O)[O-])cn1CCCCN1C(=O)c2ccccc2C1=O	3348	10	2	6	10	6.8	-48
CC(=O)NC(CC(=O)OC(C)C(=O)Nc1ncc(Cl)cc1Cl)c1ccccc1 (stereo not given)	4618	-1	-6	-1	0	0.3	0
COc1cccc(/C=N/NC(=O)CCc2n[nH]c(=O)[nH]c2=O)c1O	3412	.	-11	.	.	.	-39
COc1ccc(CCNC(=O)c2cc(=O)c3cc(C)ccc3o2)cc1	4519	-2	-4	-8	1	-4.6	-27
Brc1cccc(CNCCCN2CCOCC2)c1	2222	5	2	7	2	2.2	-31
Cc1oc(C)c(C(=O)O)c1COc1ccc(C(=O)O)cc1	4816	-4	-7	-7	0	1.0	-9
O=C(O)c1ccc(S(=O)(=O)c2ccc3c(c2)C(=O)N(NC(=O)c2ccccc2)C3=O)cc1	4527	7	-6	6	-2	6.7	-20
CCOCCCn1c(=S)[nH]c2cc(C(=O)NCCCN(CC)CC)ccc2c1=O	4630	5	14	12	16	16	-33
NC(=O)C1CCN(C2CC(=O)N(Cc3cccs3)C2=O)CC1 (stereo not given)	10205	0	-10	-10	3	4.6	.
COc1cc(/C=N/NC(=O)Cc2cccs2)c([N+](=O)[O-])cc1OC	2086	.	-25	.	.	.	-13
CCn1c(=O)c(C(=O)NCc2ccc3c(c2)OCO3)c(O)c2ccccc21	4084	11	-14	16	6	5.5	-24
Cn1c(=O)n(CC(=O)N2CCN(c3nnc(-c4ccccc4)c4ccccc34)CC2)c2ccccc21	16035	-10	-1	-8	3	-4.9	-23
